High-throughput results from PubChem.
BRCA1 expr act: activators of BRCA1 expression. 1.1% of 380,000 active. AID 624202. MCF7-BRCA1-FFLuc reporter, luminescence, 48 h; response scale: scaled: vehicle 0%, 10 µM genistein 100%. Potency, µM (series often up to 46.1 µM), inactives show top-dose activation, usual class: activators; also: potency is read from the fitted curve at half-maximal effect; nearly all actives have a fitted effect of over 80% in size; some results filed as inactive show a strong effect at the top dose
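First, MCF7-BRCA1-FFLuc cells (2000/well) attach for 2 h; next, compounds are pin-added and incubated 48 h at 37 °C; finally, luciferase reagent is added and luminescence read after 15 min.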
Rab9 promoter act: activators of Rab9 promoter | AID 485297 | Huh7 Rab9 promoter-luciferase reporter, luminescence, 24 h | 2.8% of 320,000 active | Potency, µM (doses to about 9.22 µM), for the others: top-dose activation, negative = inhibition, hits mostly activators; also: potency is read from the fitted curve at half-maximal effect; % of control where 0% means no effect; nearly all actives have a fitted effect of over 60% in size
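Luminescence from Amplite-detected luciferase (10 minutes, ambient) reports Rab9 promoter activation. Before that, stable Rab9-luciferase Huh7 cells (1500/well, reduced-serum OP-MEM I plus 10% FBS) were exposed to compound for 24 hours at 37C.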
PKM2 act: PKM2 (human) enzyme activation | purified PKM2, Kinase-Glo ATP luminescence, activation; response scale: 0% is enzyme alone, no compound | 0.34% of 260,000 active | AID 1631 | Potency, µM (titrated, usually from 57.5 µM), inactives show at the highest dose activation, hits mostly activators; also: potency is read from the fitted curve at half-maximal effect; % is scaled to controls: 0 for no effect and ±100 for the full control effect; nearly all actives have a fitted effect of over 55% in size
Target sequence (P14618 whole entry, looked up): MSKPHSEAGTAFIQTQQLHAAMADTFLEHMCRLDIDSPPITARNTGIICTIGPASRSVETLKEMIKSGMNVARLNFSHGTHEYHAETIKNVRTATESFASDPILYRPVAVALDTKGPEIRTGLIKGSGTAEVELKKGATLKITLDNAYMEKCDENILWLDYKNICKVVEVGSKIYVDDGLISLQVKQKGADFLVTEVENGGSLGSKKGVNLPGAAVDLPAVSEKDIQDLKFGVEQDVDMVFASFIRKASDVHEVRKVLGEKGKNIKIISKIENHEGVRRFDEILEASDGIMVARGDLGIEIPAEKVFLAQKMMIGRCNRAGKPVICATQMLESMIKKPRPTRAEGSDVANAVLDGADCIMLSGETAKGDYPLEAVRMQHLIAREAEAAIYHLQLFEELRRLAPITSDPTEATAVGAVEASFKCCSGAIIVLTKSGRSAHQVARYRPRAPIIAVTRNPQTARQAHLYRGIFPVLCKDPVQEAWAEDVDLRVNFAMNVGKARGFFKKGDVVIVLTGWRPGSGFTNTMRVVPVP
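hPK-M2, >95% pure; 0.1 mM ADP / 0.5 mM PEP final; imidazole pH7.2 buffer w/ 7 mM MgCl2, 50 mM KCl; 1 h RT; Kinase-Glo lum. Intermediate enzyme activity for dual inhibitor/activator qHTS.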
NPC1 prom act: activates the NPC1 promoter | Huh7 NPC1 promoter luciferase reporter, 24 h | Potency, µM (doses to about 9.22 µM), without a hit: at the highest dose activation, actives largely listed as activators | 2.4% of 320,000 active;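 also: potency is read from the fitted curve at half-maximal effect; % of control where 0% means no effect; nearly all actives have a fitted effect of over 60% in size; reporter is driven by a mutant NPC1 promoter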
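Compounds in DMSO were transferred onto Huh7 NPC1-luciferase reporter cells pre-incubated 2 h; after 24 h at 37 °C, Amplite reagent was dispensed and luminescence recorded 10 min later.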
Giardia killer: kills Giardia lamblia; Giardia lamblia trophozoite viability; activity change, % at 7.66 µM, hits read low; 0.15% of 340,000 active; AID 540267; in the data active = activity change below about -80%; inconclusive = between about -30% and that limit;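 also: parasites exposed to compound for two days anaerobically before the ATP read; % is scaled to controls: 0 for no effect and ±100 for the full control effect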
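Giardia lamblia trophozoites (100 cells/well) were incubated with compounds for 48 h at 37 deg C under anaerobic conditions. Viability was read as ATP content by one-step luminescence after 15-30 min at room temperature.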
ELG1 genotox: inducers of genotoxicity in HEK293T ELG1-luciferase cells; HEK293T ELG1-luciferase reporter, luminescence, 16 h; 1.3% of 330,000 active; Potency, µM (doses to about 46 µM), for inactives: top-dose activity change, positive = activation, hits mostly activators; AID 504466; also: potency is read from the fitted curve at half-maximal effect; % of control where 0% means no effect; nearly all actives have a fitted effect of over 60% in size
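Quantitative HTS format in 1536-well plates. HEK293T ELG1-luciferase reporter cells receive test compound and are incubated 16 hr at 37 °C, 5% CO2; ONE-Glo added, 30 min room temperature, then luminescence read.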
* marks the source's active call; other numbers are inactive results; ? = inconclusive; . = not tested or not shown; & = joins results of further samples; [ ] = dose if it differs, or a comment. Unless noted, calls follow the shape of the dose curve; as a rule, active = well fitted activation curve with a large enough effect; inconclusive = small, poorly fitted or top-dose-only effect; inactive = no such curve, though single readings can be large or run the other way. This is a subset; count on the stated rates, not on these rows.

Values in the order – Giardia killer	PKM2 act	Rab9 promoter act	NPC1 prom act	ELG1 genotox	BRCA1 expr act
O=[N+]([O-])c1cc(F)c(N2CCCCCC2)cc1N1CCNCC1
 : -8	-1%	-10%	-3%	0%	-7%
C[C@]12CC[C@@H](O)C[C@H]1CC[C@@H]1[C@@H]2CC[C@]2(C)C(=O)CC[C@@H]12
 : 6	.	-3%	-2%	-2%	15%
CCN[C@@H](C)Cc1cccc(C(F)(F)F)c1
 : -7	.	.	.	0%	2%
Cc1ccc(C[n+]2c(-c3ccc(C)cc3)cc(-c3ccc(C)cc3)cc2-c2ccc(C)cc2)cc1
 : 3	.	-45%[inhibitor]	-41%[inhibitor]	-3%	-61%
OCCOCCO
 : -19	.	0%	-3%	-1%	10%
Oc1c(Br)cc(Br)cc1Br
 : -5	.	-1%	1%	1%	-4%
CC(=O)/C=C/c1ccccc1
 : -25	.	.	.	3%	14%
c1ccc2nc(N3CCNCC3)ccc2c1
 : 8&-6	.	-3%	1%	19%	13%&12%
C=CCN1CC[C@]23c4c5ccc(O)c4OC2C(O)C=CC3[C@H]1C5 (some centres not stated)
 : -6	.	.	.	3%	2%
O=c1[nH]c2ccccc2o1
 : -18	-15%	-2%	-1%	2%	-2%
C[C@@H]1O[C@@H]1P(=O)(O)O
 : 13	.	0%	-1%	1%	3%
C[C@]12CC[C@@H](O)CC1=CCC1C2CC[C@@]2(C)C1CC[C@@H]2O (some centres not stated)
 : .	.	.	.	.	3%
C[C@]12CCC3C(CC[C@H]4C[C@H](O)CC[C@]34C)C1CCC2=O (some centres not stated)
 : -4	.	.	.	-10%	-22%
CCCCn1c(=O)c(C(=O)Nc2ccccc2Cl)c(O)c2ccccc21
 : 10	1%	17%	?	0%	-22%
NCC1(CC(=O)O)CCCCC1
 : .	3%	4%[46.1 µM]	0%[46.1 µM]	1%	.
Cc1ccc(-c2nc(N3CCOCC3)s[n+]2-c2ccccc2)cc1
 : -7	-17%	24%	8%	?	.
O=c1c2ccccc2nc(-c2ccccc2)n1-c1ccc(O)cc1
 : 12	1%	-9%	-1%	-11%	-6%
O=[N+]([O-])c1cccc(CCl)c1
 : 22	.	-3%	-3%	0%	0%
Clc1ccc(COC(Cn2ccnc2)c2ccc(Cl)cc2Cl)cc1 (configuration not stated)
 : 3	-1%	-6%	-2%	-3%	-8%
O=C(Cc1ccccc1)OCc1ccccc1
 : 0	.	1%	1%	2%	12%

Arranged by formula weight (smallest number first): some entries from above
Values in the order – Giardia killer	PKM2 act	Rab9 promoter act	NPC1 prom act	ELG1 genotox	BRCA1 expr act
OCCOCCO
 : -19	.	0%	-3%	-1%	10%
O=c1[nH]c2ccccc2o1
 : -18	-15%	-2%	-1%	2%	-2%
C[C@@H]1O[C@@H]1P(=O)(O)O
 : 13	.	0%	-1%	1%	3%
CC(=O)/C=C/c1ccccc1
 : -25	.	.	.	3%	14%
NCC1(CC(=O)O)CCCCC1
 : .	3%	4%[46.1 µM]	0%[46.1 µM]	1%	.
O=[N+]([O-])c1cccc(CCl)c1
 : 22	.	-3%	-3%	0%	0%
c1ccc2nc(N3CCNCC3)ccc2c1
 : 8&-6	.	-3%	1%	19%	13%&12%
O=C(Cc1ccccc1)OCc1ccccc1
 : 0	.	1%	1%	2%	12%
CCN[C@@H](C)Cc1cccc(C(F)(F)F)c1
 : -7	.	.	.	0%	2%
C[C@]12CC[C@@H](O)CC1=CCC1C2CC[C@@]2(C)C1CC[C@@H]2O (some centres not stated)
 : .	.	.	.	.	3%
O=c1c2ccccc2nc(-c2ccccc2)n1-c1ccc(O)cc1
 : 12	1%	-9%	-1%	-11%	-6%
O=[N+]([O-])c1cc(F)c(N2CCCCCC2)cc1N1CCNCC1
 : -8	-1%	-10%	-3%	0%	-7%
Oc1c(Br)cc(Br)cc1Br
 : -5	.	-1%	1%	1%	-4%
Cc1ccc(-c2nc(N3CCOCC3)s[n+]2-c2ccccc2)cc1
 : -7	-17%	24%	8%	?	.
CCCCn1c(=O)c(C(=O)Nc2ccccc2Cl)c(O)c2ccccc21
 : 10	1%	17%	?	0%	-22%
Clc1ccc(COC(Cn2ccnc2)c2ccc(Cl)cc2Cl)cc1 (configuration not stated)
 : 3	-1%	-6%	-2%	-3%	-8%
Cc1ccc(C[n+]2c(-c3ccc(C)cc3)cc(-c3ccc(C)cc3)cc2-c2ccc(C)cc2)cc1
 : 3	.	-45%[inhibitor]	-41%[inhibitor]	-3%	-61%

Later entries
Values in the order – Giardia killer	PKM2 act	Rab9 promoter act	NPC1 prom act	ELG1 genotox	BRCA1 expr act
C[N+]1([O-])[C@@H]2CC(OC(=O)[C@H](CO)c3ccccc3)C[C@H]1[C@@H]1O[C@@H]12 (some centres not stated)
 : -1	.	-6%	0%	-6%	6%
Cc1cccc([N+](=O)[O-])c1
 : 3	.	1%	-3%	1%	-2%
COc1ccc2c3c1OC1C(O)C=CC4[C@@H](C2)N(C)CC[C@]314 (some centres not stated)
 : -18	.	.	.	0%	13%
Cc1cccc(N2CCN(CCc3ccccc3)CC2)c1C
 : 4	9%	5%	3%	0%	1%
O=C(Nc1cccc(Cl)c1)OC1CN2CCC1CC2 (configuration not stated)
 : 15	5%	18%	19%	-14%	49%
O=C(CCCN1CCC2(CC1)C(=O)NCN2c1ccccc1)c1ccc(F)cc1
 : 7	-7%	-39%[inhibitor][46.1 µM]	-32%[inhibitor][46.1 µM]	15%	-71%
